Screens: PubChem, National Center for Advancing Translational Sciences (NCATS)
Tau fibril FP: inhibitors of human tau fibril formation; K18 P301L tau heparin fibrillization, Alexa594 FP, 6 h; Potency, µM (doses to about 57.7 µM), for the others: at the highest dose activity, negative = inhibition, most hits filed as inhibitors; 0.39% of 280,000 active; AID 1468; also: % is scaled to controls: 0 for no effect and ±100 for the full control effect; nearly all actives have a fitted effect of over 55% in size
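FP of Alexa 594-tau after heparin (20 uM) induction. Substrate: human K18 P301L, 15 uM unlabeled, 0.24 uM labeled. Buffer 100 mM sodium acetate pH 7. 6 hr, 37 C.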
HTT cytoprotect: cytoprotection in Huntington HTT-Q103 PC12 cell model; 0.14% of 230,000 active; AID 1471; Potency, µM (highest dose often 56.4 µM), for inactives: cytoprotection (ATP increase), usual class: activators; PC12 HTT-Q103 induced, cytoprotection, ATP luminescence, 40 h;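 also: % of control where 0% means no effect; nearly all actives have a fitted effect of over 45% in size; toxic huntingtin expression switched on by the ecdysone agonist tebufenozide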
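ATP quantification (ATPlite) reports survival of PC12 cells in which tebufenozide, 100 nM final, switches on Htt exon 1 with 103 glutamines linked to GFP; compounds are titrated.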
Tau fluor counter: counter-screen for tau fibril formation inhibitors. tau K18 P301L Alexa594 fluorescence, heparin fibrillization. Potency, µM (highest dose often 57.7 µM), without a hit: at the highest dose activity change, negative = decrease. 0.93% of 280,000 active. AID 1463; also: % is scaled to controls: 0 for no effect and ±100 for the full control effect; nearly all actives have a fitted effect of over 55% in size
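Human tau K18 P301L (15 uM unlabeled, 0.24 uM Alexa 594-labeled) in 100 mM sodium acetate pH 7 with 20 uM heparin, 6 hr at 37 C. ThT 30 uM added, 1 hr ambient; Alexa 594 FP and total fluorescence read at 555/632 nm.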
TexasRed fluor: alters Texas Red total fluorescence, flagging assay interference; Potency, µM (titrated, usually from 106 µM), inactives show top-dose fluorescence change, negative = quenching; TRb/SRC2 Texas Red total fluorescence interference; 0.29% of 280,000 active; active = well fitted curve in either direction with a large enough effect; inconclusive = small, poorly fitted or top-dose-only effect; also: % is scaled to controls: 0 for no effect and ±100 for the full control effect
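Human TRb ligand-binding domain at 0.6 uM with 20 nM Texas Red SRC2 peptide in Tris buffer containing 1 uM T3 and 5% DMSO, incubated with compound 5 h at ambient temperature. Total fluorescence (555/632 nm) calculated as parallel + 2 × perpendicular.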
RECQ1 helicase: RECQ1 (human) helicase inhibition | RECQ1 DNA unwinding, red fluorescence kinetic read | Potency, µM (titrated, usually from 57.3 µM), inactives show at the highest dose activity, negative = inhibition, usual class: inhibitors | 0.54% of 240,000 active;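 also: plate controls were vehicle for no effect and no enzyme for full effect; nearly all actives have a fitted effect of over 30% in size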
Target sequence (P46063 whole entry, looked up): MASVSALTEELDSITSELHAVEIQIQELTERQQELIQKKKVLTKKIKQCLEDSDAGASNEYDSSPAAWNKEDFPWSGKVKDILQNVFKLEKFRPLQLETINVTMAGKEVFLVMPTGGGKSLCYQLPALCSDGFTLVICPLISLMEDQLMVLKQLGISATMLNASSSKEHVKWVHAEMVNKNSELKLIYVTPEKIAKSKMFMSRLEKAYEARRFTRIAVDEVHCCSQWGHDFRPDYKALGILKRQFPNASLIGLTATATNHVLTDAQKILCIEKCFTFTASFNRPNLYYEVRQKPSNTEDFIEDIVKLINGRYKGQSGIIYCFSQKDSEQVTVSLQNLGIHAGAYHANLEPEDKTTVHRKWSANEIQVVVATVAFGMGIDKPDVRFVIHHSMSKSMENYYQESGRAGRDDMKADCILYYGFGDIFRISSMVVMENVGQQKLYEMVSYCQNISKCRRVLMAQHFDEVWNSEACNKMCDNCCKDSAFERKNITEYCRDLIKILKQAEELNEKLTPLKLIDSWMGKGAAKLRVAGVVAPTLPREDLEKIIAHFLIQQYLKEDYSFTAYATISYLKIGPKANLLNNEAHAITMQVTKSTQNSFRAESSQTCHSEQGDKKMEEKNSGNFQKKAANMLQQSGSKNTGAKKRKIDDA
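50 nM RECQ1T1 preincubated 15 min with compound in Tris pH 8.0 buffer with MgCl2, DTT, Tween-20 and 2.5 ug/ml poly(dI-dC); started with 200 nM TAMRA/BHQ-2 forked duplex and 2 mM ATP. Unwinding read as fluorescence (525/598 nm), two reads 2 h apart.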
Tau ThT inhib: blocks human tau fibril formation measured by thioflavin T; P10636; recombinant tau K18 P301L, heparin-induced fibrillization, ThT fluorescence; Potency, µM (highest dose often 57.4 µM), for inactives: at the top dose activity, negative = inhibition, most hits filed as inhibitors; 2.1% of 270,000 active; also: % is scaled to controls: 0 for no effect and ±100 for the full control effect; nearly all actives have a fitted effect of over 55% in size
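ThT emission at 510 nm, taken 1 hr after adding 30 uM dye, quantifies aggregates formed when 20 uM heparin acts on human tau K18 P301L for 6 hr at 37 C.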
TRb-SRC2 inh: inhibitors of human thyroid hormone receptor beta-SRC2 interaction; Potency, µM (doses to about 106 µM), for the others: top-dose activity change, negative = inhibition, usual class: inhibitors; AID 1469; 0.065% of 280,000 active; P10828; TRbeta-SRC2 peptide binding, fluorescence polarization; receptor liganded with 1 µM T3;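 also: plate controls were bound peptide for no effect and peptide without receptor for full effect; nearly all actives have a fitted effect of over 50% in size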
Target sequence (P10828 whole entry, looked up): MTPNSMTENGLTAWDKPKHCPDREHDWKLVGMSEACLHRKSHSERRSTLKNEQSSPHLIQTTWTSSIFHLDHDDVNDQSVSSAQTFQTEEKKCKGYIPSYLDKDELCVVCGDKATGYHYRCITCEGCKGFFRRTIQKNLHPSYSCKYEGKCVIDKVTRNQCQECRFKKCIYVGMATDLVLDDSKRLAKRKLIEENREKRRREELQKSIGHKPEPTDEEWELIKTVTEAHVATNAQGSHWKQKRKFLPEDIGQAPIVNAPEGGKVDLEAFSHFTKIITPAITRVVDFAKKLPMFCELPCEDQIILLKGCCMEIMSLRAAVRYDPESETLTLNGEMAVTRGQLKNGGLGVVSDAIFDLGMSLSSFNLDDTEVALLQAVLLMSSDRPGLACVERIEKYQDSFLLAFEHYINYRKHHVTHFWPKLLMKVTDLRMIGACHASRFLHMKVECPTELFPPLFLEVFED
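Binding of a 20-amino-acid Texas Red SRC2 peptide (20 nM) to TRb ligand-binding domain (0.6 uM) with agonist T3 at 1 uM was followed by fluorescence polarization after a 5 hr room-temperature incubation.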
Starred values were filed as active, the others as inactive; i = inactive; ? = inconclusive; / = not tested or not shown; & = joins results of further samples; [ ] = dose if it differs, or a comment. Unless noted, calls follow the shape of the dose curve; as a rule, active = well fitted curve in the direction sought with a large enough effect; inconclusive = small, poorly fitted or top-dose-only effect, or another doubt; inactive = no such curve, though single readings can be large; an effect the other way counts as inactive or inconclusive. Potency is read from the fitted curve at half-maximal effect. This is a subset; count on the stated rates, not on these rows.

SMILES	Tau fibril FP	HTT cytoprotect	Tau fluor counter	TexasRed fluor	RECQ1 helicase	Tau ThT inhib	TRb-SRC2 inh
O=C(Nc1ccc2c(c1)nc1n2CCOC1)c1ccco1	-0.8%	-85.4%[inhibitor]	1.9%	-3.7%	-4.2%	-16.1%	1.6%
COC(=O)CSc1nc(C)cc(C)c1C#N	-1.1%	-2.5%[10 µM]	-13.1%	-0.4%	-6.3%	-11.2%	0.0%
COc1ccc(C2N3CC4(C)CN2CC(C)(C3)C4O)cc1OC (stereo not drawn)	9.0%	-8.1%[10 µM]	-8.3%	-3.6%	10.6%	-6.5%	-0.4%
CCOC(=O)CSc1nc2cc3c(cc2cc1CC)OCCO3	0.2%	9.2%[10 µM]	-0.9%	-2.4%	-1.1%	3.9%	-5.1%
CCC(=O)NC(Nc1sc2c(c1C(=O)OC)CCN(C)C2)(C(F)(F)F)C(F)(F)F	-1.1%	8.5%[10 µM]	2.3%	2.1%	-0.8%	-10.1%	15.9%
CN(C)c1nc(OCCNC(=O)COc2ccccc2Cl)nc(N(C)C)n1	-10.6%	7.5%[10 µM]	1.3%	-5.3%	-0.3%	-2.6%	-4.2%
Cc1ccc(S(=O)(=O)NC2(C(F)(F)F)C(=O)Nc3c2c(=O)[nH]c(=O)n3-c2ccccc2)cc1 (stereo not drawn)	12.8%&8.8%	?	7.9%&0.9%	0.9%&-0.2%	-4.3%	14.8%&-7.6%	-0.2%&0.6%
Cc1nc2cc(NS(=O)(=O)c3c(C)c(C)cc(C)c3C)ccc2s1	9.5%	27.9%[10 µM]	13.5%	2.4%	-7.1%	15.1%	-12.5%
CC(=O)OCC1=C(C(=O)O)N2C(=O)C(NC(=O)CSc3ccncc3)[C@@H]2SC1 (stereo partly drawn)	-13.9%	?	-13.9%	0.5%	13.5%	?	10.8%
O=c1cc(-c2ccc(O)cc2)oc2c([C@@H]3O[C@H](CO)[C@@H](O)[C@H](O)[C@H]3O)c(O)cc(O)c12	/	/	/	-1.8%	-22.9%	/	8.8%
S=c1[nH]nc(-c2cccnc2)n1/N=C/c1ccccc1	-0.8%	-9.2%[10 µM]	-4.9%	-0.4%	12.1%	-5.1%	-4.6%
COc1ccccc1NC(=O)/C(C#N)=C/C=C/c1ccco1	-2.4%	-43.3%[inhibitor]	-7.6%	2.9%	i	?	3.8%
CC(C)NC(=S)Nc1ccc2nc3n(c(=O)c2c1)CCCCC3	4.7%	-20.4%[10 µM]	0.3%	0.5%	6.9%	6.9%	5.0%
N#Cc1c(NC(=O)CN2CCCCC2)sc2c1CCC2	-2.1%	-1.7%	-5.1%	-4.4%	-23.6%	-6.3%	7.1%
Cc1nc2cc(F)ccc2n1C1CCN(C(=O)c2c(F)cccc2F)CC1	3.9%	-47.9%[inhibitor]	-8.4%	5.5%	-2.3%	-5.0%	4.7%
COC(=O)/C=C1\SC(=NC(=O)c2cccc(Cl)c2)NC1=O	-10.1%	-3.3%	-6.7%	0.3%	-4.2%	-12.1%	-5.2%
COC(=O)C/C=N/N=C1/NC(=O)/C(=C/C(=O)O)S1	-20.2%	-6.5%[10 µM]	-13.1%	-4.7%	-2.6%	?	3.7%
COc1ccc(-c2cc(CNC(=O)CN3CCN(C)CC3)on2)cc1	?	-9.8%[10 µM]	-5.1%	-0.4%	-0.2%	-2.1%	-5.2%
C=CCn1c(SCC(=O)Nc2cccnc2Cl)nnc1-c1ccccc1F	-9.6%	-5.2%[10 µM]	-1.9%	-2.1%	5.9%	3.9%	-0.7%
COc1ccc(NC(=O)CN2CCN(CC(=O)Nc3cc(OC)cc(OC)c3)CC2)cc1	-13.4%	0.7%	-16.3%	-1.3%	0.6%	-13.8%	-5.2%
O=C(/C=C/c1ccccc1Cl)NCc1ccccc1	-1.3%	0.3%	-6.3%	1.8%	7.7%	-7.1%	3.8%
Cn1c(N)c(C(=O)COC(=O)c2cc(C3CC3)nc3ccccc23)c(=O)n(C)c1=O	?	-15.6%	?	-0.3%&-0.4%	-3.2%&-2.5%	-2.6%&-0.6%	6.0%&-5.9%
Cc1ccc(/C=N/n2c(COc3ccccc3)n[nH]c2=S)s1	4.1%	-21.8%	-1.1%	-1.2%	2.0%	-0.7%	0.2%
CC(N=C(NC#N)Nc1ccncc1)C(C)(C)C (stereo not drawn)	4.6%&1.3%&-5.5%&-0.5%&-4.2%	-33.5%&-35.5%&-53.3%[inhibitor]	2.2%&-13.8%&-1.3%&-23.3%&-14.7%	-0.1%&0.9%&-1.8%&-4.7%&0.7%	-1.6%&13.5%&-12.9%	5.3%&-12.7%&-0.6%&-16.9%&-7.0%	-5.6%&-5.2%&4.3%&0.9%&-1.2%
COc1ccc(NC(=O)c2sc(N)nc2-c2ccccc2)cc1	-0.8%	-38.9%[inhibitor]	-10.4%	-2.6%	-14.9%	-7.9%	-0.2%
CCCNC(=O)COC(=O)c1cc(C)nc2ccccc12	1.2%	2.0%	-7.0%	-1.7%	9.8%	-4.9%	-1.2%
Cn1c(N)c(C(=O)COC(=O)c2ccc3c(c2)OCCO3)c(=O)n(C)c1=O	0.6%	-7.4%	5.5%	1.8%	-7.9%	5.1%	7.1%
O=c1cc(-c2ccc(O)cc2)oc2c([C@H]3O[C@@H](CO)[C@@H](O)[C@@H](O)[C@@H]3O)c(O)cc(O)c12	/	-5.4%[40.3 µM]	/	-3.2%[53 µM]	-0.4%[25.9 µM]	/	-2.9%[53 µM]
CC(C(=O)Nc1ccc(Cl)cc1)c1ncc(C(F)(F)F)cc1Cl (stereo not drawn)	0.8%	-3.9%[10 µM]	-10.8%	2.0%	-7.2%	-13.4%	1.8%
Cc1ccc(S(=O)(=O)N(C)CCCC(=O)Nc2ccc(C)cc2C)cc1	4.3%	7.8%[10 µM]	-6.7%	1.1%	-8.2%	-9.6%	3.8%
CCOC(=O)N1CCN(C(=O)c2ccc(OC)c(S(=O)(=O)N3CCOCC3)c2)CC1	5.9%	-7.8%	2.5%	4.7%	-5.5%	-4.0%	1.7%
CCn1c(Cc2ccccc2)nnc1SCC(=O)Nc1ccc(S(N)(=O)=O)cc1	-11.3%	2.4%	-0.2%	3.4%	-15.7%	-3.5%	-4.8%
O=C(CNC(=O)c1cccc(OC(F)F)c1)OCc1cc(=O)n2cc(Br)ccc2n1	-2.8%	2.8%[10 µM]	-13.8%	0.9%	-0.8%	-7.4%	-0.9%
CC1(C)CC(=O)C2=C(C1)OC(N)=C(C#N)C2c1ccc[nH]1 (stereo not drawn)	0.5%	1.0%[10 µM]	-10.9%	-1.7%	8.3%	-6.0%	-8.4%
CCC(C)N=CC1=C(O)C(C(=O)OC)C(C)(C)CC1=O (stereo not drawn)	-12.0%	-8.4%[1.9 µM]	1.1%	0.5%	-4.7%	9.4%	-22.8%
Cc1cc(-c2n[nH]c(=S)n2/N=C/c2cccc(O)c2)n[nH]1	5.0%	16.2%[10 µM]	6.1%	-1.9%	i	3.9%	7.7%
O=C(OCC(=O)c1ccccc1Br)c1ccccn1	-2.4%	2.7%[10 µM]	-0.5%	1.2%	-8.7%	-14.3%	0.6%
CN(Cc1cccs1)C(=O)/C=C/c1ccccc1[N+](=O)[O-]	-2.3%	-62.4%[inhibitor]	-11.3%	-2.1%	-2.9%	-11.2%	3.4%
CN1C(=S)N(c2ccccc2)C(=O)/C1=C/c1cccs1	-4.0%	-0.7%[10 µM]	-5.6%	2.2%	-2.6%	3.1%	9.7%
S=c1[nH]nc(COc2ccccc2)n1/N=C/c1ccco1	-1.2%	-2.7%	-2.7%	-4.8%	-6.3%	-6.1%	4.8%
Cc1cc(C)n(C(=O)CCCCCC(=O)n2nc(C)cc2C)n1	8.9%	4.0%[10 µM]	2.5%	-8.6%	i	-6.5%	4.5%
CCN1C(=O)/C(=C/c2ccc(C)o2)N(C)C1=S	?	22.5%[10 µM]	-20.1%	0.8%	9.4%	22.4µM*	-14.1%
COc1ccc(/C=C/C(=O)NC(=S)N2CCN(c3ccccn3)CC2)cc1	-1.7%	27.9%[10 µM]	-20.6%	-5.6%	-8.9%	-15.2%	3.5%
COc1ccc(S(=O)(=O)N2CCN(C(=O)[C@@H]3CCC(=O)N3C3OC(=O)c4ccccc43)CC2)cc1 (stereo partly drawn)	-1.4%	-18.3%[0.074 µM]	-5.3%	-2.6%	-11.9%	-9.9%	-2.7%
CC(C)(C)c1cc(C(C)(C)C)c2oc(=O)c(-c3nc4ccc(C(=O)O)cc4[nH]3)cc2c1	-6.4%	/	-3.2%	-4.0%	/	?	7.1%
C/C(CC(=O)NCC(C)C)=N\NC(=O)COc1cc(C)c(Br)cc1Br	-5.5%	-3.7%[10 µM]	-14.4%	9.0%	-3.0%	-13.5%	0.2%
CCC(=O)c1ccccc1OCCN1CCN(Cc2ccccc2)CC1	-2.2%	/	0.0%	-3.4%	i	-9.0%	3.4%
C/C(=N\Nc1ccc(Cl)c(C(=O)O)c1)c1cccs1	4.7%	24.7%[10 µM]	-3.6%	-2.4%	-19.2%	?	-3.7%
O=C(Nc1ccccc1)C1=C(O)CC(c2ccoc2)CC1=Nc1ccccc1 (stereo not drawn)	3.3%	9.3%[1.9 µM]	-14.1%	-4.4%	-3.3%	-16.2%	-2.6%
CCOC(=O)C1=NN(c2ccc(OC)cc2)C2C(=O)N(c3ccccc3OC)C(=O)C12 (stereo not drawn)	-1.5%	5.9%[10 µM]	-14.0%	-0.2%	i	-10.5%	4.7%
COc1ccc(C2C(C(=O)N3CCCCC3)c3ccccc3C(=O)N2C)cc1 (stereo not drawn)	-11.7%	-54.3%[inhibitor]	-28.5%	-1.5%	-1.1%	-11.0%	6.3%
COc1ccc(C(=O)NC(=S)NNC(=O)c2cnccn2)cc1OC	-11.3%	15.2%[10 µM]	-12.1%	-7.7%	-2.4%	?	-6.5%
CCCCNC(=O)c1onc(CCl)c1C(=O)OC	8.4%	-86.9%[inhibitor]	-13.8%	-8.3%	-11.2%	-14.4%	-5.5%

Two of the compounds above, as labelled records:
mol: CCCCNC(=O)c1onc(CCl)c1C(=O)OC
  Tau fibril FP: 8.4%
  HTT cytoprotect: -86.9%[inhibitor]
  Tau fluor counter: -13.8%
  TexasRed fluor: -8.3%
  RECQ1 helicase: -11.2%
  Tau ThT inhib: -14.4%
  TRb-SRC2 inh: -5.5%

mol: COc1ccc(S(=O)(=O)N2CCN(C(=O)[C@@H]3CCC(=O)N3C3OC(=O)c4ccccc43)CC2)cc1 (stereo partly drawn)
  Tau fibril FP: -1.4%
  HTT cytoprotect: -18.3%[0.074 µM]
  Tau fluor counter: -5.3%
  TexasRed fluor: -2.6%
  RECQ1 helicase: -11.9%
  Tau ThT inhib: -9.9%
  TRb-SRC2 inh: -2.7%
